Source: PubChem BioAssay (several laboratories)
UCH37 inh: inhibitors of human deubiquitinating enzyme UCH37; 330,000 tested, 0.33% active; purified proteasome/UCH37, Ub-AMC cleavage fluorescence; inhibition, % (concentration not given with the values); AID 588478;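 active = mean of two replicates above 20%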;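 also: 0% = compound-free wells with enzyme and 100% = wells lacking proteasome; stock transfer was 100 nL into about 20 µL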
Target sequence (Q9Y5K5 whole entry, looked up): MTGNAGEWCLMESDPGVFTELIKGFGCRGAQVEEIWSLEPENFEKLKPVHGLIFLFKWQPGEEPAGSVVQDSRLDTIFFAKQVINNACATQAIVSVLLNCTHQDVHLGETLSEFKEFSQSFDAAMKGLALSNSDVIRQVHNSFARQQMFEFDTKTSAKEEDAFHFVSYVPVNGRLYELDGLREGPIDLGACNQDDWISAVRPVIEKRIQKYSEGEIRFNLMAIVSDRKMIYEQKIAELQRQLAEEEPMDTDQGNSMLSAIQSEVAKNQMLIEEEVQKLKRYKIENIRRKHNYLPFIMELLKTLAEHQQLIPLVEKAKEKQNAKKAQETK
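Test system – human UCH37 enzyme supplied as purified proteasome complex · Incubation – 30 min preincubation with enzyme, 25 min cleavage at room temperature · Detection – AMC fluorescence from Ub-AMC cleavage, excitation 355 nm, emission 460 nm · Benchmarks – no-proteasome wells (full inhibition) and compound-free wells (no inhibition)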
FGF22 binding: binders of recombinant human FGF22 by thermal shift | SYPRO orange fluorescence; percent of sucrose octasulfate shift, DMSO zero | calls only at 9.99 µM | 340,000 tested, 1.5% active | AID 651658;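 active = melting point raised past a set limit in the mean and every replicate; inconclusive = no clear call; three in four hits are not shown here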
Target sequence (Q9HCT0 whole entry, looked up): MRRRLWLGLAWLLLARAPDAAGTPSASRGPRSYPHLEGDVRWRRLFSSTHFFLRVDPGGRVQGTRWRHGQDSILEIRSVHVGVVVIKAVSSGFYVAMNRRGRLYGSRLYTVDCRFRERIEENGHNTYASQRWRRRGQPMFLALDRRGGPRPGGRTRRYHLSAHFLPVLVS
T cruzi inh: T. cruzi replication inhibition | AID 1885 | T. cruzi beta-gal in NIH3T3, luminescence, 90 h | 300,000 tested, 1.4% active | inhibition, % (no concentration beside the values);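 active = mean inhibition across valid replicates above about 55%, limit read from the data; inconclusive = mean below that limit but half or more replicates reach it; inactive = mean below it, under half of replicates reach it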;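 also: signal also drops with host cell toxicity which is not excluded here; 0% = plate median of DMSO wells and 100% = zero luminescence signal; higher percent means less beta-gal luminescence so fewer parasites; stock transfer was 50 nL into about 50 µL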
Beta cell apopt: beta cell apoptosis inhibition. AID 435005. INS-1E cytokine-induced death, ATP luminescence, 48 h; percent of positive-control rescue, neutral wells zero. 300,000 tested, 0.8% active. protection from apoptosis, % (concentration not given with the values);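 active = all replicates at 75% or more, or half of them and the mean; inconclusive = half reach 75% but not the mean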;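 also: 0% = cytokine-treated negative control wells and 100% = positive control rescue; higher means more ATP so stronger rescue from cytokine killing; wells of about 40 µL received 100 nL stock; the first replicate is given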
Ecoli rRNA inh: inhibits bacterial ribosomal RNA function over humanized ribosomes. 350,000 tested, 1.6% active. GFP signal change (wild-type ribosome), % (no concentration beside the values). E. coli WT GFP vs humanized-ribosome RFP mutants, fluorescence, 24 h; stronger effect = lower value; DMSO median 0, no signal -100;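 active = significant combined selectivity score with lowered wild-type GFP, culture density cut under 30%, mutant RFP and density less affected; inactive = any of these conditions unmet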; also: one replicate is shown; some compounds called inactive have numbers as strong as hits
Ecoli growth: E. coli growth inhibition. Escherichia coli growth, OD600, 23 h; stronger effect = lower value. OD600 absorbance (no concentration beside the values). 330,000 tested, 0.21% active. AID 1053175;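 active = OD600 absorbance below the run mean of sample wells minus 3.6 SD, in any replicate, cut at about 0.56 in these data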;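 also: stock transfer was 300 nL into about 60 µL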
AF4-AF9 inh: MLL-AF4/AF9 protein interaction inhibition; P42568; AlphaScreen, biotin-AF4 peptide binding to FLAG-AF9; inhibition, % at 10 µM; 350,000 tested, 0.47% active; AID 651704;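 active = every replicate reaching a set inhibition limit, whatever the replicate mean, cut at about 25% in these data; inconclusive = mean inhibition reaches that limit but some replicates miss it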;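 also: 0% = plate neutral control median and 100% = total signal loss; the record names both 10 and 1 µM as test concentration; the first replicate is given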
Target sequence (P42568 whole entry, looked up): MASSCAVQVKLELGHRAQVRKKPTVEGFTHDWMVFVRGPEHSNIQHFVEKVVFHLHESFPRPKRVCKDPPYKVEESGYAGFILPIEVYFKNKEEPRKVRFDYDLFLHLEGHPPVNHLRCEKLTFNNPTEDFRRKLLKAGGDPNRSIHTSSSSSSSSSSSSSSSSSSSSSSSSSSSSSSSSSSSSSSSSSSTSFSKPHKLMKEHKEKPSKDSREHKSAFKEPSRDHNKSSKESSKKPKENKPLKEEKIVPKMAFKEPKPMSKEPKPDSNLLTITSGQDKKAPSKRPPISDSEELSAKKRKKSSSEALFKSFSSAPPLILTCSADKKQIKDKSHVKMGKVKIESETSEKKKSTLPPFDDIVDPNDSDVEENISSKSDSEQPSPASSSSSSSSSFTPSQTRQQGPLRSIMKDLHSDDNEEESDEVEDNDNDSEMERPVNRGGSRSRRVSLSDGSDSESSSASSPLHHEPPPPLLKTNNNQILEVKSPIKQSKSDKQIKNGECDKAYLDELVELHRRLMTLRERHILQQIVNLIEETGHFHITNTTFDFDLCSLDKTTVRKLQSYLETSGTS
A1 inh: inhibitors of the anti-apoptotic protein A1, read as caspase activation. MEF A1-2A-BIM cells, Caspase-Glo 3/7 luminescence, 3 h; percent of clofoctol response, vehicle zero. caspase activation, % (no concentration beside the values). AID 2462. 330,000 tested, 0.066% active;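 active = over half of replicate activation scores above 10%, or exactly half above 10 with the replicate mean above 10; inconclusive = replicate mean below 10 yet half the replicates above 10; inactive = over half of replicates below 10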;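 also: wells of about 30 µL received 50 nL stock; many hits fall short of the cut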
Ecoli rRNA inh OD600: also measured in Ecoli rRNA inh; calls as there; OD600 change, %; measured here: OD600 growth;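 optical density of the mix in the first replicate; 0 = DMSO median and -100 = no signal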
Ecoli rRNA inh RFP: further read-out of Ecoli rRNA inh, marked with its call; RFP signal change, %; measured here: RFP humanized mutant strains;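 first replicate; 0 = DMSO median and -100 = no signal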
* hit, by the source's call; i = inactive; ? = inconclusive; nt = not tested or not shown; + = active, no number.

SMILES | UCH37 inh | FGF22 binding | T cruzi inh | Beta cell apopt | Ecoli rRNA inh | Ecoli rRNA inh OD600 | Ecoli rRNA inh RFP | Ecoli growth | AF4-AF9 inh | A1 inh
O=C(/C=C/c1ccc(F)cc1)N1CCN(c2ccccn2)CC1 | 1.8 | i | -14 | 0 | -10 | -6 | -6.3 | 0.67 | -0.5 | -1.3
CC(C)NCC(O)COc1ccc2c(c1)CCC2 (centres undefined) | 5.8 | nt | -7 | -5 | nt | nt | nt | 0.73 | nt | 0.2
NC(Cc1c[nH]c2ccccc12)C(=O)Nc1ccccc1 (centres undefined) | 3.5 | i | 13 | -2 | nt | nt | nt | 0.79 | 11 | -0.7
C=CC[C@@H](CC(=O)N(CCO)Cc1ccccc1)C(=O)NCCOC(=O)[C@H](CC=C)CC(=O)OC(C)(C)C | 4.0 | i | nt | 2 | -13 | -17 | 14 | nt | 0.3 | -1.4
CCOC(=O)c1sc2nc(C)nc(NCCc3ccccn3)c2c1C | -135 | nt | 8 | 6 | -6 | 1 | 3.7 | 0.66 | -1.7 | 0.3
COc1ccc(CCNC(=O)C2CCN(C(=O)c3ccc(Cl)cc3)CC2)cc1OC | 3.2 | i | -2 | -7 | 8 | 7 | 0.2 | 0.71 | 0.5 | -1.2
CCN1CCN(c2nc3c(c(=O)[nH]c(=O)n3C)n2CCSc2nc3ccccc3s2)CC1 | 0.9 | i | -10 | -6 | 4 | 4 | -2.2 | 0.78 | -3.4 | 0.6
COc1ccc(Nc2ncnc3sc(-c4ccccc4)cc23)c(OC)c1 | -106 | nt | 9 | -5 | -27 | -14 | -3.4 | 0.72 | -0.3 | -0.3
COc1ccc(CNCCC(c2ccc(OC)cc2)c2ccccc2OC)cc1 (centres undefined) | 1.6 | i | 43 | 6 | -45 | -68 | -3.7 | 0.65 | 5.7 | 0.5
C[C@H](NC(=O)[C@@H]1CCC(=O)N1Cc1ccco1)c1ccccc1 | 3.4 | i | -7 | -4 | 15 | 11 | 4.3 | 0.68 | -3.0 | -0.2
Cc1ccc(C)c(S(=O)(=O)c2c(C)cc(C)nc2Cl)c1 | 2.0 | i | 54 | -5 | -8 | -13 | 1.5 | 0.68 | -0.3 | 0.1
COC(=O)C1=C(C)Nc2nc3ccccc3n2C1c1ccccc1F (centres undefined) | -23 | i | 6 | nt | 15 | 10 | 3.1 | 0.72 | -2.1 | -0.4
CSc1ccc(CN(C)C(=O)c2ccc(S(=O)(=O)Nc3ccccc3)cc2)cc1 | 4.1 | i | 24 | 4 | 0 | -26 | -1.8 | 0.63 | -9.1 | -0.9
CC1(C)Cc2c(sc3c2c(=N)n(Cc2ccco2)c(=O)n3Cc2ccc(F)cc2)CO1 | -2.6 | nt | nt | 11 | nt | nt | nt | 0.78 | nt | 0.0
CCCOc1ccc(/C=N/Nc2ccccc2[N+](=O)[O-])c(O)c1 | nt | i | -2 | 0 | 11 | 11 | -8.4 | nt | 7.4 | -7.5
COC(=O)c1cc(NC(=O)CN2CCC(C(N)=O)(N3CCCCC3)CC2)cc(C(=O)OC)c1 | 0.5 | nt | -6 | -8 | 7 | 4 | 1.0 | 0.71 | -0.5 | -0.4
CC1CN(Cc2cc(=O)oc3cc(O)c(Cl)cc23)CC(C)O1 (centres undefined) | i | i | -31 | -8 | 3 | 6 | -1.3 | 0.71 | -7.7 | -0.1
CCCn1nc(NC(=O)CC)c2cc3cccc(C)c3nc21 | nt | i | 8 | 7 | 12 | 13 | 5.2 | nt | -13 | ?
S=C(NCCCn1ccnc1)Nc1cccc(Cl)c1 | 1.8 | i | 2 | 3 | nt | nt | nt | 0.71 | 1.1 | 1.0
O=C(COC(=O)CC1CC2CCC1C2)Nc1ccc(F)cc1Cl (centres undefined) | 3.1 | i | nt | -5 | -6 | -17 | -1.8 | 0.7 | -2.0 | 0.6
COc1ccc(Cl)cc1C(=O)Nc1ccc(OCC(=O)N2CCOCC2)cc1 | 0.8 | i | -12 | -5 | 3 | 14 | -1.7 | 0.7 | 0.9 | 0.1
CCOc1cc(S(=O)(=O)n2c(C)nc3ccccc32)ccc1F | 3.5 | nt | -5 | -1 | nt | nt | nt | 0.75 | nt | -0.9
CN(Cc1c(C(=O)N/N=C/c2ccc(F)cc2)nnn1-c1nonc1N)C1CCCCC1 | nt | i | -12 | -4 | 9 | 9 | -0.6 | nt | -2.4 | 0.8
COc1ccc(Br)cc1S(=O)(=O)Nc1cccc(C)n1 | -15 | i | -3 | -2 | 9 | -3 | -7.9 | 0.71 | -12 | -0.6
Cc1ccc(CC(=O)Nc2ccc(S(=O)(=O)Nc3ncccn3)cc2)cc1 | -2.2 | i | 1 | -2 | 14 | 9 | 4.6 | 0.71 | -3.6 | 0.3
Cc1cc(C)cc(Nc2c(F)c(F)c(F)c(F)c2C(=O)O)c1 | 4.2 | i | -8 | 1 | -33 | -39 | -8.8 | 0.69 | -0.3 | 0.2
O=C(N/N=C/c1ccc2c(c1)OCO2)c1ccc(Cl)cc1Cl | nt | i | -8 | -11 | 0 | -1 | -3.6 | nt | -12 | -2.8
CCc1c(C)nc2c(C)cccc2c1SCCC#N | 4.4 | i | 22 | -7 | -34 | -49 | -11 | 0.69 | -3.4 | 0.9
COc1ccc2c(c1)c(=O)oc1c(C)c(OCC(=O)N3CCc4ccccc4C3)ccc12 | -77 | nt | -4 | -3 | nt | nt | nt | 0.71 | nt | -0.1
C/C(CC(=O)Nc1ccc2c(c1)OCCO2)=N\NC(=O)COc1ccc(C)cc1Br | nt | + | 16 | nt | nt | nt | nt | nt | 1.6 | -1.2

FGF22 binding: entries above that show a hit
smiles,UCH37 inh,FGF22 binding,Ecoli rRNA inh,Ecoli rRNA inh OD600,Ecoli rRNA inh RFP,AF4-AF9 inh
C/C(CC(=O)Nc1ccc2c(c1)OCCO2)=N\NC(=O)COc1ccc(C)cc1Br,nt,+,nt,nt,nt,1.6

The list continues.
SMILES | UCH37 inh | FGF22 binding | T cruzi inh | Beta cell apopt | Ecoli rRNA inh | Ecoli rRNA inh OD600 | Ecoli rRNA inh RFP | Ecoli growth | AF4-AF9 inh | A1 inh
COC(=O)c1[nH]c(C)c(/C(O)=C2\C(=O)C(=O)N(CCN3CCOCC3)C2c2ccccc2OC)c1C (centres undefined) | 12 | nt | -16 | 5 | nt | nt | nt | 0.68 | nt | 0.2
O=C(Oc1cccc(-n2cnnn2)c1)C1CCCCC1 | 5.1 | nt | -6 | 1 | nt | nt | nt | 0.72 | nt | 0.4
CC(C)(C)OC(=O)C[C@@H]1C/C=C\C[C@H](CC(=O)NCCO)C(=O)N[C@H](Cc2ccccc2)COC1=O | 1.5 | i | nt | -4 | 1 | -1 | 3.1 | nt | 2.9 | 0.2
CC1CCN(C(=O)CSc2nncn2-c2ccccn2)CC1 | 6.7 | nt | -17 | -22 | nt | nt | nt | 0.71 | nt | -0.8
COCCn1c(SCC(=O)NCC2CCCO2)nc2c([nH]c3ccccc32)c1=O (centres undefined) | 0.8 | i | -1 | -19 | 7 | 1 | 0.3 | 0.74 | -0.7 | 0.1
O=C(CSc1nc2ccccc2o1)Nc1nc2ccccc2s1 | 3.8 | nt | -11 | -7 | nt | nt | nt | 0.69 | nt | -0.6
COc1cc(Cl)c(CC(=O)c2c[nH]c3ccccc23)cc1OC | 5.6 | i | 14 | 5 | -1 | -4 | 1.9 | 0.7 | 2.8 | -0.4
O=C(NCc1nnc(SCC(=O)N2CCCc3ccccc32)n1-c1ccccc1)c1cccc2ccccc12 | 3.6 | nt | 6 | 6 | nt | nt | nt | 0.73 | nt | -1.0
CCN(c1ccccc1C(=O)O)S(=O)(=O)c1ccc2[nH]c(=O)[nH]c2c1 | -11 | i | 1 | -6 | 11 | 15 | 1.7 | 0.68 | -0.6 | -0.3
COc1ccc(NC(=O)CSc2nc(C)cs2)cc1OC | 5.2 | nt | -11 | -3 | nt | nt | nt | 0.73 | nt | 0.9
C#CCOCCOCCOCCNc1nc(N2CCN(C(=O)[C@H](CCC(=O)O)n3cc([C@@H](N)CC(N)=O)nn3)CC2)nc(N2CCN(C(=O)[C@H](CCC(=O)O)n3cc([C@@H](N)CC(N)=O)nn3)CC2)n1 | 2.9 | i | nt | -8 | 21 | 14 | 0.3 | 0.7 | 0.0 | 0.3
CCCn1c(N)c(C(=O)CSc2nc(C3CC3)n(-c3ccccc3)n2)c(=O)[nH]c1=O | -2.0 | i | nt | -3 | 15 | 8 | 1.2 | 0.71 | 0.0 | 0.2
CS(=O)(=O)N1N=C(c2ccco2)CC1c1ccccc1Cl (centres undefined) | 5.9 | i | -13 | -2 | 3 | 0 | -2.8 | 0.7 | -0.5 | 0.7
Cc1ccc(S(=O)(=O)N(C)Cc2cc3ccccc3[nH]c2=O)cc1 | 1.5 | nt | 6 | -3 | nt | nt | nt | 0.66 | nt | -0.1
OC(CN1CCN(c2ccccc2Cl)CC1)c1ccccc1 (centres undefined) | 4.5 | i | 5 | -2 | -2 | -14 | -2.1 | 0.61 | -0.3 | -0.3
COc1ccc(CCNS(=O)(=O)CCNC(=O)c2ccc(OC)cc2)cc1 | 3.0 | i | -4 | -3 | -3 | -3 | 0.7 | 0.69 | -0.8 | -0.7
Cc1cccc(NC(=O)c2c(F)c(F)c(F)c(F)c2F)c1 | 5.2 | nt | -8 | 3 | nt | nt | nt | 0.75 | nt | ?
O=C(CSc1nc2ccccc2s1)NCCOc1ccccc1 | -1.4 | i | 1 | -7 | -18 | -36 | -12 | 0.67 | -9.0 | -0.3
Cn1cccc1C1CCCN1CC(=O)Nc1c(Cl)cc(Cl)cc1Cl (centres undefined) | 3.4 | i | nt | 0 | -1 | 3 | 2.4 | 0.71 | 4.8 | -0.7
CCOC(=O)C1(Cc2ccccc2C)CCCN(C(=O)CSC)C1 (centres undefined) | nt | i | -8 | -10 | -2 | 5 | 2.0 | nt | -2.9 | 0.5
O=C(CCN1CCN(c2ccccc2)CC1)c1ccc(Cl)cc1 | 5.4 | i | 31 | -5 | 2 | 8 | -1.1 | 0.65 | -3.9 | -2.6
CC(C)(C)c1ccc(OCCn2nc(C(=O)O)c3ccccc3c2=O)cc1 | 1.9 | i | -21 | 1 | -23 | -59 | 18 | 0.7 | 1.2 | 0.1
COC(=O)C1=C(CS(=O)(=O)c2cc(OC)ccc2OC)NC(=O)NC1c1ccc(O)c(OC)c1 (centres undefined) | 0.7 | + | -16 | -5 | 4 | 7 | -1.0 | 0.68 | 6.3 | -0.7
Cc1ccc(CN2CCSc3ccc(C(=O)NCc4ccco4)cc32)cc1 | -23 | nt | 4 | -6 | -17 | -14 | -5.3 | 0.74 | 3.8 | 0.8

Two of the compounds above, with two lines to a compound:
The line under a structure holds: UCH37 inh | FGF22 binding | T cruzi inh | Beta cell apopt | Ecoli rRNA inh | Ecoli rRNA inh OD600 | Ecoli rRNA inh RFP | Ecoli growth | AF4-AF9 inh | A1 inh
- CC1CN(Cc2cc(=O)oc3cc(O)c(Cl)cc23)CC(C)O1 (centres undefined)
  i | i | -31 | -8 | 3 | 6 | -1.3 | 0.71 | -7.7 | -0.1
- CCCn1nc(NC(=O)CC)c2cc3cccc(C)c3nc21
  nt | i | 8 | 7 | 12 | 13 | 5.2 | nt | -13 | ?

Some of the compounds tested; the hit share may differ from the screen's.
